UUG fidelity = modulators of yeast start codon fidelity, primary screen, whole organism, S. cerevisiae, single point, plate reader; AID 602363, 2012; S. cerevisiae UUG-firefly luciferase reporter, luminescence/redox ratio; hit rate 0.13% among 350,000; activity score, % at 18.7 µM;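 active means replicate mean at a twofold rise or more, about +100% in these data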;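 further: firefly luciferase made from a UUG start codon reports start codon fidelity; reporter light over untreated wells divided by growth signal over untreated wells; some hits fall short of that in this replicate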
Numbers without * were called inactive. These rows are one share of the data (hit frequency here may not be typical).

mol	UUG fidelity
Cc1ccc(S(=O)(=O)N(C)C[C@@H]2Oc3ccc(NC(=O)CCN4CCOCC4)cc3CC(=O)N([C@@H](C)CO)C[C@@H]2C)cc1	7
C[C@H]1CN([C@@H](C)CO)C(=O)c2cc(NS(=O)(=O)c3cccs3)ccc2O[C@H]1CN(C)C(=O)Nc1ccc2c(c1)OCO2	4
CO[C@H]1CN(C)C(=O)c2ccc(NC(=O)Nc3cc(F)ccc3F)cc2OC[C@@H](C)N(C(=O)c2ccccn2)C[C@@H]1C	-2
CC(C)(O)C#Cc1ccc([C@@H]2[C@H](CO)N3CCCCN(C(=O)c4ccncc4)C[C@@H]23)cc1	-2
COc1ccc(C#Cc2ccc([C@H]3[C@H](CO)N4CCCCN(C(=O)Nc5ccccc5F)C[C@@H]34)cc2)cc1	0
O=C(C[C@@H]1CC[C@H]2[C@@H](COC[C@@H](O)CN2Cc2nccs2)O1)NCc1ccc(Cl)cc1	-2
Cc1ccccc1-c1ccc([C@@H]2[C@@H](CO)N3CCCCN(C(=O)c4cccnc4)C[C@H]23)cc1	-5
C[C@@H]1CN([C@@H](C)CO)C(=O)c2cccc(NC(=O)C3CC3)c2O[C@@H]1CN(C)S(=O)(=O)c1ccc(Cl)cc1	-14
CCN(C[C@@H]1N[C@@H](CO)[C@@H]1c1ccc(C2=CCCC2)cc1)C(=O)c1ccncc1	16
CO[C@@H]1CN(C)C(=O)c2cc(NC(C)=O)ccc2OC[C@@H](C)N(CC2CC2)C[C@H]1C	-5
CCS(=O)(=O)N1CCCCN2[C@H](CO)[C@@H](c3ccc(-c4ccc(C#N)cc4)cc3)[C@H]2C1	-2
COc1cccc(-c2ccc([C@H]3[C@H](CO)N4CCCCN(CC5CCOCC5)C[C@@H]34)cc2)c1	-5
CC(C)NC(=O)N(C)C[C@@H]1Oc2ccc(NS(=O)(=O)c3ccc(Cl)cc3)cc2CC(=O)N([C@@H](C)CO)C[C@H]1C	-1
CO[C@H]1CN(C)C(=O)c2ccc(NC(=O)C3CC3)cc2OC[C@@H](C)N(Cc2ccc(F)cc2)C[C@@H]1C	15
C[C@@H]1CN([C@@H](C)CO)C(=O)c2cc(NS(=O)(=O)c3ccccc3)ccc2O[C@H]1CN(C)S(C)(=O)=O	-10
CCS(=O)(=O)N1CCCCN2[C@H](C1)[C@@H](c1ccc(-c3ccccc3C)cc1)[C@@H]2CO	1
C[C@H](CO)N1C[C@H](C)[C@@H](CN(C)Cc2ccncc2)Oc2ccc(NC(=O)Cc3ccccc3)cc2CC1=O	26
Cc1noc(C)c1S(=O)(=O)N(C)C[C@H]1Oc2ccc(NS(C)(=O)=O)cc2C(=O)N([C@H](C)CO)C[C@H]1C	-12
COCC(=O)N1[C@@H](CO)[C@@H]2c3ccccc3N(C(=O)c3cccc(OC)c3)C[C@@H]21	-2
CCC(=O)N1[C@H](CO)[C@H]2c3ccccc3N(C(=O)c3cnccn3)C[C@H]21	-11
C[C@H](CO)N1C[C@H](C)[C@H](CN(C)C)Oc2ccc(NC(=O)Nc3ccc(C(F)(F)F)cc3)cc2C1=O	9
COc1ccc(S(=O)(=O)N(C)C[C@@H]2Oc3ccc(NC(=O)Cc4ccccc4)cc3CC(=O)N([C@@H](C)CO)C[C@H]2C)cc1	10
CCC(=O)Nc1ccc2c(c1)OC[C@@H](C)N(C(=O)Cc1ccccn1)C[C@H](C)[C@@H](OC)CN(C)C2=O	-2
C[C@@H]1CN([C@H](C)CO)C(=O)c2cc(NS(C)(=O)=O)ccc2O[C@@H]1CN(C)C(=O)Nc1ccccc1	-29

Sorted by formula weight (falling): five of the compounds above.
mol	UUG fidelity
COc1ccc(S(=O)(=O)N(C)C[C@@H]2Oc3ccc(NC(=O)Cc4ccccc4)cc3CC(=O)N([C@@H](C)CO)C[C@H]2C)cc1	10
C[C@H](CO)N1C[C@H](C)[C@@H](CN(C)Cc2ccncc2)Oc2ccc(NC(=O)Cc3ccccc3)cc2CC1=O	26
C[C@@H]1CN([C@H](C)CO)C(=O)c2cc(NS(C)(=O)=O)ccc2O[C@@H]1CN(C)C(=O)Nc1ccccc1	-29
COCC(=O)N1[C@@H](CO)[C@@H]2c3ccccc3N(C(=O)c3cccc(OC)c3)C[C@@H]21	-2
CCC(=O)N1[C@H](CO)[C@H]2c3ccccc3N(C(=O)c3cnccn3)C[C@H]21	-11

(listing goes on)
mol	UUG fidelity
O=C(C[C@@H]1CC[C@@H]2[C@H](COC[C@@H](O)CN2C(=O)Nc2ccccc2)O1)NC1Cc2ccccc2C1	38
COc1ccc(C#Cc2ccc([C@@H]3[C@@H](CO)N4CCCCN(C(=O)Nc5ccccc5)C[C@H]34)cc2)cc1	16
Cc1ccc(S(=O)(=O)N2C[C@@H](O)COC[C@H]3O[C@H](CC(=O)NCCN4CCCCC4)CC[C@@H]32)cc1	3
CO[C@@H]1CN(C)C(=O)c2ccc(NC(=O)Nc3ccc(Cl)cc3)cc2OC[C@H](C)N(C(=O)Nc2c(C)noc2C)C[C@@H]1C	-2
COCC#Cc1ccc([C@@H]2[C@H]3CN(Cc4cncnc4)CCCCN3[C@H]2CO)cc1	22
CCN(C[C@H]1[C@H](c2ccccc2)[C@H](CO)N1CC1CC1)C(=O)c1ccccn1	-1
COc1ccc(NC(=O)N(C)C[C@@H]2Oc3ccc(NS(=O)(=O)c4c(C)noc4C)cc3C(=O)N([C@H](C)CO)C[C@H]2C)cc1	-5
O=C(c1cccnc1)N1CCCCN2[C@@H](CO)[C@@H](c3ccc(C#Cc4cccnc4)cc3)[C@@H]2C1	-18
CCN(C[C@H]1[C@H](c2ccccc2)[C@@H](CO)N1CC1CC1)C(=O)c1ccccn1	-7
CCS(=O)(=O)N1CCCCN2[C@H](CO)[C@H](c3ccc(C4=CCCC4)cc3)[C@H]2C1	-1
CO[C@H]1CN(C)C(=O)c2cc(NC(=O)c3ccccc3F)ccc2OC[C@H](C)N(CC2CC2)C[C@H]1C	0
C[C@@H]1CN([C@@H](C)CO)C(=O)c2cc(NC(=O)Nc3ccc4c(c3)OCO4)ccc2O[C@H]1CN(C)S(C)(=O)=O	0
CO[C@@H]1CN(C)C(=O)c2ccc(NC(C)=O)cc2OC[C@H](C)N(C(=O)C2CCOCC2)C[C@@H]1C	11
O=C(C[C@H]1C[C@@H]2c3cc(NS(=O)(=O)c4ccc(F)cc4)ccc3O[C@@H]2[C@@H](CO)O1)NCc1cc(F)ccc1F	2
CN(C)CC#Cc1ccc([C@H]2[C@@H](CO)N3CCCCN(C(=O)Nc4cc(F)ccc4F)C[C@@H]23)cc1	-9
OC[C@H]1[C@@H](c2ccc(C#CC3(O)CCCC3)cc2)[C@@H]2CN(Cc3ccncc3)CCCCN12	13
CO[C@@H]1CN(C)C(=O)c2ccc(NC(=O)c3cnccn3)cc2OC[C@@H](C)N(C(=O)C2CC2)C[C@H]1C	-10
CCS(=O)(=O)N1CCCCN2[C@@H](CO)[C@@H](c3ccc(-c4ccccc4F)cc3)[C@@H]2C1	-6
O=C(C[C@H]1C[C@@H]2c3cc(NC(=O)CC4CC4)ccc3O[C@@H]2[C@H](CO)O1)NCc1ccccc1F	2
Cc1ccc(S(=O)(=O)N2CC[C@@H]3[C@@H](CO)N(C)c4ccc(-c5ccc(C#N)cc5)cc4[C@@H]32)cc1	-20
COc1ccc(-c2ccc([C@H]3[C@H]4CN(S(=O)(=O)c5cccs5)CCCCN4[C@H]3CO)cc2)cc1	1
CN(C)CC(=O)Nc1ccc2c(c1)[C@@H]1C[C@H](CC(=O)NCc3ccc(Cl)cc3)O[C@H](CO)[C@@H]1O2	0
COc1ccc(-c2cnc3c(c2)C(=O)N([C@H](C)CO)C[C@H](C)[C@H](CN(C)S(=O)(=O)c2ccc(C#N)cc2)O3)cc1	23
CC(C)NC(=O)N1CCCCN2[C@@H](CO)[C@@H](c3ccc(C#Cc4ccccc4F)cc3)[C@@H]2C1	-2
O=C(C1CC1)N1[C@@H](CO)[C@@H]2c3ccccc3N(S(=O)(=O)c3ccc(F)cc3)C[C@@H]21	5
COc1cccc(S(=O)(=O)N2CCCCN3[C@H](CO)[C@H](c4ccc(C#CC5CC5)cc4)[C@@H]3C2)c1	7
COc1ccc(CN(C)C[C@@H]2Oc3c(NC(=O)NC4CCCCC4)cccc3C(=O)N([C@@H](C)CO)C[C@@H]2C)cc1	-9
CO[C@H]1CN(C)C(=O)c2cc(NC(=O)c3ccccc3)ccc2OC[C@H](C)N(C(=O)CN(C)C)C[C@@H]1C	5
Cc1noc(C)c1S(=O)(=O)Nc1ccc2c(c1)C(=O)N([C@H](C)CO)C[C@@H](C)[C@@H](CN(C)C(=O)Nc1ccc3c(c1)OCO3)O2	4
CC(C)NC(=O)N1CCCCN2[C@H](CO)[C@H](c3ccc(C#C[C@@H](C)O)cc3)[C@@H]2C1	13
COc1cccc(-c2ccc3c(c2)[C@@H]2[C@@H](CCN2S(=O)(=O)c2cn(C)cn2)[C@H](CO)N3)c1	4
CCCNC(=O)Nc1ccc2c(c1)C(=O)N(C)[C@H]1CC[C@@H](CC(=O)OC)O[C@@H]1CO2	2

3 records drawn at random from those above:
mol	UUG fidelity
CO[C@H]1CN(C)C(=O)c2ccc(NC(=O)C3CC3)cc2OC[C@@H](C)N(Cc2ccc(F)cc2)C[C@@H]1C	15
C[C@H]1CN([C@@H](C)CO)C(=O)c2cc(NS(=O)(=O)c3cccs3)ccc2O[C@H]1CN(C)C(=O)Nc1ccc2c(c1)OCO2	4
O=C(c1cccnc1)N1CCCCN2[C@@H](CO)[C@@H](c3ccc(C#Cc4cccnc4)cc3)[C@@H]2C1	-18

Carrying on:
Compound | UUG fidelity
COc1cccc(-c2ccc3n(c2=O)C[C@@H]2[C@@H](CO)[C@H](C(=O)N(C)C)N(C(=O)C4CCCC4)[C@H]32)c1 | -2
CN1C[C@@H]2[C@H](c3ccccc31)[C@@H](CO)N2C(=O)Nc1ccc(F)cc1 | -2
C[C@H](CO)N1C[C@H](C)[C@H](CN(C)C(=O)NC2CCCCC2)Oc2ccc(NC(=O)Nc3ccccc3)cc2CC1=O | -8
Cc1noc(C)c1NC(=O)Nc1ccc2c(c1)C(=O)N([C@H](C)CO)C[C@H](C)[C@H](CN(C)S(=O)(=O)c1cn(C)cn1)O2 | -12
CCC(=O)Nc1ccc2c(c1)C(=O)N(C)C[C@H](OC)[C@H](C)CN(Cc1cccc(F)c1)[C@H](C)CO2 | 19
COc1ccc(S(=O)(=O)N2C[C@H](O)COC[C@@H]3O[C@H](CC(=O)NCCCN4CCOCC4)CC[C@H]32)cc1 | -11
C[C@@H]1CN([C@@H](C)CO)C(=O)c2cccc(NC(=O)c3ccc(-c4nccs4)cc3)c2O[C@H]1CN(C)C | -4
O=S(=O)(c1ccc(F)cc1)N1C[C@H]2[C@@H](c3ccccc31)[C@@H](CO)N2Cc1ccc2c(c1)OCO2 | 0
COCC#Cc1ccc([C@@H]2[C@H](CO)N3CCCCN(C(=O)COC)C[C@@H]23)cc1 | 12
CC(C)NC(=O)Nc1ccc2c(c1)C(=O)N([C@H](C)CO)C[C@@H](C)[C@H](CN(C)S(=O)(=O)c1ccccc1)O2 | 0
N#Cc1cccc(-c2ccc3c(c2)[C@H]2[C@H](CCN2Cc2ccncc2)[C@H](CO)N3)c1 | -12
CCNC(=O)C[C@H]1CC[C@@H]2[C@H](COC[C@H](O)CN2C(=O)c2cccnc2)O1 | -6
CCC(=O)Nc1ccc2c(c1)C(=O)N(C)C[C@@H](OC)[C@@H](C)CN(C(=O)C1CCC1)[C@@H](C)CO2 | -9
COc1ccccc1S(=O)(=O)N1CC[C@H]2[C@H](CO)Nc3ccc(-c4ccccc4)cc3[C@H]21 | -2
COc1cccc(-c2ccc3c(c2)[C@H]2[C@H](CCN2S(=O)(=O)c2cccc(OC)c2)[C@@H](CO)N3)c1 | -14
COCC(=O)NC[C@@H]1[C@@H](c2ccc(C3=CCCC3)cc2)[C@@H](CO)N1C(C)=O | -8
O=C(Nc1cccc(F)c1)N1C[C@H]2[C@@H](c3ccccc31)[C@@H](CO)N2C(=O)C1CCOCC1 | 14
C[C@H](CO)N1C[C@H](C)[C@H](CN(C)Cc2ccc(Oc3ccccc3)cc2)Oc2ccc(NC(=O)c3ccncc3)cc2CC1=O | 9
OC[C@H]1[C@@H](c2ccc(-c3cncnc3)cc2)[C@@H]2CN(CC3CCOCC3)CCCCN12 | 7
CO[C@H]1CN(C)C(=O)c2ccc(NC(=O)Nc3ccccc3)cc2OC[C@@H](C)NC[C@H]1C | 4
CO[C@H]1CN(C)C(=O)c2ccc(NC(=O)c3cc(C)on3)cc2OC[C@@H](C)NC[C@@H]1C | -21
C/C=C/c1ccc([C@@H]2[C@@H](CO)N(C(=O)CC)[C@H]2CN(C)S(C)(=O)=O)cc1 | -1
CCC(=O)N1CCCCN2[C@@H](CO)[C@@H](c3ccc(C#Cc4cccnc4)cc3)[C@@H]2C1 | -5
COCC(=O)N1CCCCN2[C@H](CO)[C@H](c3ccc(C#Cc4ccc(OC)cc4)cc3)[C@@H]2C1 | 22
COc1ccccc1NC(=O)N1CC[C@H]2[C@@H]1c1cc(-c3ccc(F)cc3)ccc1N(C)[C@H]2CO | 9
C[C@@H]1CN([C@H](C)CO)C(=O)Cc2cc(NS(C)(=O)=O)ccc2O[C@@H]1CN(C)C(=O)Nc1ccc(F)cc1 | -4
COc1ccc(S(=O)(=O)Nc2ccc3c(c2)C(=O)N([C@@H](C)CO)C[C@@H](C)[C@H](CN(C)CC2CCCCC2)O3)cc1 | -7
COCC(=O)Nc1ccc2c(c1)OC[C@H](C)N(CC1CCCCC1)C[C@@H](C)[C@@H](OC)CN(C)C2=O | 6
CN1c2ccc(Br)cc2[C@H]2[C@H](CCN2S(=O)(=O)c2ccccc2F)[C@@H]1CO | 21
CCCN1C[C@@H](C)[C@@H](OC)CN(C)C(=O)c2cc(NC(=O)C3CC3)ccc2OC[C@@H]1C | -7
CN(C)C(=O)c1ccc(-c2ccc([C@@H]3[C@@H](CO)N4CCCCN(Cc5ccncc5)C[C@@H]34)cc2)cc1 | 24
CC(=O)N1[C@@H](CO)[C@@H](c2ccccc2)[C@@H]1CN(C)C(=O)CN1CCOCC1 | -6

Screening results from PubChem BioAssay.
